Source: PubChem (several laboratories)
RecA intein inh: inhibitors of M. tuberculosis RecA intein splicing | AID 2221 | cell-free RecA intein splicing, fluorescence | inhibition, %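 (about 9 µM by stock and volumes)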 | P9WHJ3 | actives 0.75% (n = 290,000); in the data active means inhibition above about 30%; inconclusive means no clear call, values can overlap the other calls;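 further: 0% = vehicle wells and 100% = reference inhibitor control wells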
Target sequence (P9WHJ3 whole entry, looked up): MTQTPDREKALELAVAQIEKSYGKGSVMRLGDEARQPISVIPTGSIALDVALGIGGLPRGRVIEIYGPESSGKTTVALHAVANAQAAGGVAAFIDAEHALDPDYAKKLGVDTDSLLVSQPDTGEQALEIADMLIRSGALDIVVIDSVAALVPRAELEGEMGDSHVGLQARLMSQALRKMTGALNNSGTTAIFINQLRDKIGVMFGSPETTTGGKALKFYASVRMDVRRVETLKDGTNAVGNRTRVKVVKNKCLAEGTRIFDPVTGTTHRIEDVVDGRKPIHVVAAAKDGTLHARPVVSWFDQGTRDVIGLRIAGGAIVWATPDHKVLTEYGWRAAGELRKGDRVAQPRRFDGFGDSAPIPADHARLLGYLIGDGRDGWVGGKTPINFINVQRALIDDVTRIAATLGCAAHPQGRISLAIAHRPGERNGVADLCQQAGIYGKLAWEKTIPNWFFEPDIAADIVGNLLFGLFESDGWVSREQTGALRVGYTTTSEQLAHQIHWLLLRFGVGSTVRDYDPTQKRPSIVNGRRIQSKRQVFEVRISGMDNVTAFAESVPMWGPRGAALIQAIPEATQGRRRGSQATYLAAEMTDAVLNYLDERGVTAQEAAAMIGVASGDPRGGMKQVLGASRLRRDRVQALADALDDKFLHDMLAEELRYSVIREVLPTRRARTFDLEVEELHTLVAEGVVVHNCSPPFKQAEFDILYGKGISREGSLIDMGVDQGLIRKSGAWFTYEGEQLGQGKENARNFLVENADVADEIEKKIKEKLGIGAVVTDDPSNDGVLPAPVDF
Mtb H37Rv: M. tuberculosis H37Rv growth inhibitors, H37Rv strain (AID 1626); actives 0.95% (n = 220,000); inhibition, % at 10 µM, or IC50 in µM where a hit was titrated; M. tuberculosis H37Rv growth inhibition; higher % means a stronger effect;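 active means confirmed in a dose series; inconclusive means inhibition above 80% but not taken into the dose series; inactive means below 80% or under 30% at every dose of the series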;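 further: bacteria incubated seven days before Alamar blue readout; 0% = bacteria only wells and 100% = bacteria with antibiotic wells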
Arbovirus anti: antivirals against arbovirus infection | actives 0.37% (n = 200,000) | arbovirus infection cell-based antiviral screen | inhibition, % at 10 µM;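 active means inhibition from about 30%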;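 further: bluetongue infection of BSR cells; cell survival read as ATP light after 72 h; 0% = infected wells without compound and 100% = uninfected wells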
Mtb betalactam: beta-lactam sensitization of Mtb H37Rv | M. tuberculosis H37Rv growth with meropenem, percent inhibition; hits of this screen are not shown here | inhibition, % at 25 µM | actives 0.27% (n = 330,000) | AID 434955;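 active means about 74% or more and at least 40 points above the plate without the antibiotic, then above 30% in a dose series; inconclusive means first-round hits that could not be retested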;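 further: growth measured after seven days incubation then overnight dye step; 0% = bacteria only wells and 100% = bacteria with antibiotic; twin plates without the antibiotic show which effects depend on it; some results filed as inactive read as strong as hits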
YopH inh: blocks Yersinia enterocolitica YopH tyrosine phosphatase; fluorescence Ex485/Em525; inhibition, %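 (about 10 µM by stock and volumes)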; actives 0.16% (n = 140,000); AID 898;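 active means inhibition of 50% or more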;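 further: controls were vehicle for no effect and minimum signal wells for full effect; inactives centre near -20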
Arbovirus anti repeat: second read-out of Arbovirus anti, no call of its own (marks repeat the call); inhibition, %; measured here: 10K subset replicate screen; many hits read low in the repeat;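 first of two repeat runs on a subset; 0% = infected and 100% = uninfected wells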
Starred values were filed as active, the others as inactive; ? = inconclusive; nt = not tested or not shown. An excerpt, so the mix of outcomes need not match the whole.

SMILES	RecA intein inh	Mtb H37Rv	Arbovirus anti	Mtb betalactam	YopH inh	others
O=C(Nc1ccc(C(=O)N2CCCCC2)cc1)C1CCCCC1	-0.3	-2.0%	2.0	-11.3	-33.6
OCC1CCCCN1CC(O)COC(c1ccc(F)cc1)c1ccc(F)cc1 (stereo unspecified)	-0.1	nt	nt	6.3	nt
COc1ccc(OCC(=O)Nc2c(C(=O)N(CCN(C)C)Cc3ccco3)oc3ccccc23)cc1	-1.2	nt	nt	84.2	nt
Cc1cc(OCC(=O)NNC(=O)c2ccncc2)cc(C)c1Cl	-1.0	nt	nt	99.3	nt
O=C(/C=N/O)NCCCN1CCOCC1	-2.3	2.4%	-12.9	-5.4	-24.4
CCN1CCN(C(=O)COCc2cc(-c3ccc4c(c3)OCO4)on2)CC1	-2.8	nt	nt	?	nt
CCOCCCNC(=O)C(NC(=O)c1ccc(NC(C)=O)cc1)c1ccc(Cl)cc1 (stereo unspecified)	-1.0	11.0%	-3.6	6.2	17.7
COCc1cc(C)n(CC(=O)OC)c(=O)c1C#N	1.2	-2.6%	17.9	33.6	nt
COc1cc(/C=C/C(=O)NC(=O)c2ccccc2O)ccc1O	2.5	nt	nt	7.2	nt
COc1ccc(C2=NOC(C)(c3nnc(-c4ccc(Cl)cc4)o3)C2)cc1 (stereo unspecified)	4.2	-4.8%	nt	-5.3	nt
O=C(OCc1nnc(-c2ccc(Cl)cc2)o1)c1ccncc1	5.3	-5.5%	-0.4	-4.2	-49.4
Cc1cccc(OCCCCn2c(CO)nc3ccccc32)c1	3.8	nt	nt	44.2	nt
Cc1c(C=O)c2ccccc2n1CCOc1ccccc1F	-2.0	nt	nt	1.1	nt
Cc1cc(C)nc(NS(=O)(=O)c2ccc(NC(=O)C(C)C)cc2)n1	-3.1	nt	nt	-1.3	nt
CC(=O)N1CCC(C(=O)NCCOc2cccc(C)c2)CC1	-0.4	nt	nt	1.3	nt
Cc1ccccc1-c1ccc(Nc2ccc(N3CCOCC3)cc2)nn1	-2.1	50.6%	-7.4	92.9	-47.9	Arbovirus anti repeat=-1.6
CCOC(=O)c1cc2sccc2n1CC(=O)N1c2ccccc2CC1C (stereo unspecified)	-0.2	0.6%	-16.9	-1.4	-42.1
O=C(O)c1cc(S(=O)(=O)O)ccc1O	-0.3	-0.2%	1.8	9.5	-4.1
O=C(CN1C(=O)CNC1=O)Nc1ccc(Cl)cc1	1.0	-7.2%	nt	5.0	nt
COc1ccc(S(=O)(=O)N2CCCC2C(=O)NCc2ccccc2Cl)cc1 (stereo unspecified)	4.6	-6.5%	-9.9	-10.3	nt
COC(=O)C(CCCN1C(=O)c2ccccc2C1=O)(NC(C)=O)c1nn[nH]n1 (stereo unspecified)	-0.4	-6.8%	-9.3	-3.9	nt
Cc1ccc(NC(=O)CCn2nc([N+](=O)[O-])cc2C)nc1	0.7	20.9%	8.0	1.4	-10.8
Nc1cc(F)ccc1N1CCCCCC1	-2.1	0.3%	12.8	-0.7	nt
O=C(CNc1cccc(S(=O)(=O)N2CCOCC2)c1)Nc1cccc(Br)c1	-3.4	nt	nt	0.0	nt
O=S(=O)(NCc1cccs1)c1ccc(Cl)s1	2.5	nt	nt	-0.1	nt
CC(=O)c1ccc(OC(C)C)c(CSc2nc(O)cc(=O)[nH]2)c1	-1.2	0.5%	4.9	-0.8	-40.9
Cc1ccc(C(C)c2c(C)c([N+](=O)[O-])cc(C)c2[N+](=O)[O-])cn1 (stereo unspecified)	2.3	nt	nt	5.3	nt
CCC1(c2ccc(F)cc2)NC(=O)N(CC(=O)c2cc(C)n(C3CC3)c2C)C1=O (stereo unspecified)	0.9	nt	nt	-1.0	nt
COc1ccc(NC(=O)c2c3c(nc4ccccc24)CCC3)cc1S(=O)(=O)N1CCOCC1	0.4	0.6%	6.1	1.3	-12.9
COC(=O)C(C)Sc1nnc(SC(C)C(=O)OC)s1 (stereo unspecified)	-1.2	-5.8%	5.2	-7.2	-38.3
COc1ccc(NC(=S)NCCc2c[nH]c3ccccc23)cc1	2.5	11.3%	4.5	-0.7	-25.7
CC(=O)Nc1cc(C(=O)O)ccc1S(=O)(=O)c1ccc(Cl)cc1	0.8	3.8%	5.7	nt	-52.3
COc1cccc(NC(=O)Cc2nnc(SCC(=O)c3ccccc3)n2C)c1	2.8	-4.0%	15.6	nt	9.7
CC1Cc2cc(/C(O)=C3/C(=O)C(=O)N(CCCn4ccnc4)C3c3ccc(F)cc3)ccc2O1 (stereo unspecified)	-2.6	nt	nt	-3.2	nt
FC(F)(F)c1cnc(NNC(=S)Nc2ccccc2Cl)c(Cl)c1	-4.9	8.1%	-7.4	3.2	-40.2
COC(=O)COc1ccc(S(=O)(=O)NCCC2=CCCCC2)cc1Cl	-1.7	-3.1%	-0.4	-6.0	5.5
Cc1cc(C(=O)NNC(=O)c2ccc(C(F)(F)F)cc2)no1	0.2	-8.4%	nt	-3.9	nt
Cc1cccc(NC(=S)NC(=O)c2ccco2)n1	-3.2	-3.9%	-1.2	-1.0	-29.0
N#C/C(C(N)=O)=C1/SC(Cc2ccc(F)cc2)C(=O)N1c1ccccc1 (stereo unspecified)	2.0	3.3%	nt	-10.0	nt
O=C(Nc1ccccc1Oc1ccccc1)c1cc([N+](=O)[O-])ccc1Cl	10.5	7.2%	5.5	4.4	-9.9
Cc1ccc(N2CC(C(=O)Nc3cccc(F)c3)CC2=O)cc1 (stereo unspecified)	-4.1	-0.6%	0.7	7.8	-40.3	Arbovirus anti repeat=2.9
CCC(=O)Nc1ccc(-c2csc(NNC(C)=O)n2)cc1	-5.7	2.4%	-5.0	-1.6	-3.2
CCCOP(=O)(OCCC)C(Nc1ccc(C(=O)O)cc1)c1ccccc1 (stereo unspecified)	-0.9	-2.4%	0.9	-13.8	nt
CN(C(=O)c1ccccc1F)C(c1ccccc1)c1ccccc1	15.6	nt	nt	10.8	nt
C=CCOc1cccc(/C=C/c2nc3ccccc3c(=O)[nH]2)c1	2.2	nt	nt	8.9	nt
Cc1cc(Cl)ccc1C(=O)C1CCCN(C(=O)c2n[nH]c3c2CCCC3)C1 (stereo unspecified)	1.9	-1.5%	22.6	-0.2	nt
CC(C)c1ccc(NC2CCCN(C(=O)CC3CCCC3)C2)cc1 (stereo unspecified)	4.9	nt	nt	6.4	nt
CSCCC(NC(=O)c1ccccc1)C(=O)NCc1ccc(S(N)(=O)=O)cc1 (stereo unspecified)	-1.5	nt	nt	-3.0	nt
COc1ccc(C2NC(=O)C(=O)/C2=C(\O)c2ccc(Cl)cc2)cc1OC (stereo unspecified)	-0.5	nt	nt	2.2	nt
Cc1ccc(C(=O)Oc2cccc(NC(=O)c3ccccc3)c2)cc1C	15.0	7.76µM*	-13.1	99.2	-14.6
COC(=O)c1cc(OC)c(OC)cc1NC(=O)Cc1cccs1	2.0	-7.1%	-7.4	-3.2	nt
COc1ccc(/C=N/N(c2ccccc2)c2ccccc2)cc1O	15.5	nt	nt	17.3	nt
COc1ccc(C(=O)Nc2ccc(S(=O)(=O)N3CCCCC3)cc2)cc1	1.2	-1.4%	-18.2	-1.3	-3.8
Cn1c(Cc2cccs2)nnc1SC/C=C/c1ccccc1	2.1	11.0%	-0.7	-2.6	-43.5
CC(NC(=O)/C=C/c1ccccc1[N+](=O)[O-])C1CC2CCC1C2 (stereo unspecified)	0.8	nt	nt	-6.6	nt
O=C(CC1SC(N2CCCC2)=NC1=O)Nc1ccc(C(=O)N2CCCC(C(F)(F)F)C2)cc1 (stereo unspecified)	1.1	nt	nt	-7.9	nt
COc1ccc(-n2nc(C(=O)NCC(=O)Nc3cc(OC)c(OC)c(OC)c3)c3ccccc3c2=O)cc1OC	1.3	nt	nt	-0.8	nt
CC1CCN(S(=O)(=O)c2cccc(-c3cn4cc(Cl)ccc4n3)c2)CC1	-2.4	-1.4%	-12.1	-3.9	-2.4
CCOC(=O)c1nnn(-c2nonc2N)c1-c1ccc(OC)cc1	-1.6	-3.1%	3.3	4.5	2.1
O=C1C2CCCN2C(=O)N1CCCCN1CCN(c2cccc(C(F)(F)F)c2)CC1 (stereo unspecified)	-0.9	nt	nt	-9.6	nt

Entries listed so far containing a CF3 group:
SMILES	RecA intein inh	Mtb H37Rv	Arbovirus anti	Mtb betalactam	YopH inh	others
FC(F)(F)c1cnc(NNC(=S)Nc2ccccc2Cl)c(Cl)c1	-4.9	8.1%	-7.4	3.2	-40.2
Cc1cc(C(=O)NNC(=O)c2ccc(C(F)(F)F)cc2)no1	0.2	-8.4%	nt	-3.9	nt
O=C(CC1SC(N2CCCC2)=NC1=O)Nc1ccc(C(=O)N2CCCC(C(F)(F)F)C2)cc1 (stereo unspecified)	1.1	nt	nt	-7.9	nt
O=C1C2CCCN2C(=O)N1CCCCN1CCN(c2cccc(C(F)(F)F)c2)CC1 (stereo unspecified)	-0.9	nt	nt	-9.6	nt

Additional structures.
SMILES	RecA intein inh	Mtb H37Rv	Arbovirus anti	Mtb betalactam	YopH inh	others
CCc1ccc(NC(=O)CSc2nnc(CNC(=O)c3ccc(OC)cc3)o2)cc1	-1.0	nt	nt	7.1	nt
COc1ccc(C)cc1Nc1n[n+](C)c(-c2ccc(O)cc2O)s1	-2.0	nt	nt	2.1	nt
COc1ccc(N=CC2=C(O)CC(C)(C)CC2=O)cc1	-1.6	?	-4.2	94.7	0.2	Arbovirus anti repeat=-8.8
Cc1c(OCC(=O)NCCCn2ccnc2)ccc2c3c(c(=O)oc12)CCC3	5.8	nt	nt	-4.9	nt
COc1ccc(N(C)S(=O)(=O)c2cccc3cccnc23)c(OC)c1	2.8	3.6%	-18.6	-1.2	-46.5
CCOCCCNC(=S)N(Cc1ccco1)Cc1cc2cc3c(cc2[nH]c1=O)OCCO3	4.9	7.3%	-6.2	-1.0	nt
O=C(c1ccc(F)cc1)C1CCN(C(=O)NC2CCCCC2)CC1	1.2	-8.6%	1.6	-2.2	14.5
O=C(Nc1ccccc1C(=O)O)/C(=C/c1ccc([N+](=O)[O-])cc1)NC(=O)c1ccc(Br)o1	1.3	16.5%	14.1	11.3	nt
COc1cccc(CN(CC2CCCO2)S(=O)(=O)c2ccc(-n3cnnn3)c(OC)c2)c1 (stereo unspecified)	-0.2	-6.8%	3.5	2.5	nt
COc1ccc(C(=O)OCC(=O)N(C)C2CCS(=O)(=O)C2)cc1S(=O)(=O)N(C)Cc1ccccc1 (stereo unspecified)	-0.7	nt	nt	-2.8	nt
Cc1cccc(Sc2c(C=O)c3ccccc3n2C)c1	30.4*	7.7%	-6.7	3.6	-37.5
COc1ccc2cc(CN(Cc3ccco3)C(=S)NCC3CCCO3)c(=O)[nH]c2c1 (stereo unspecified)	1.8	4.2%	0.5	-11.1	nt
CN1CCN(S(=O)(=O)c2cccc(C(=O)Nc3ccccc3N3CCCCC3)c2)CC1	0.2	nt	nt	3.4	nt
COc1ccc(Cl)cc1NS(=O)(=O)c1cccc(C(=O)NCC(c2ccco2)N2CCCC2)c1 (stereo unspecified)	-5.7	nt	nt	-1.8	nt
O=C(CCCC1=NS(=O)(=O)c2ccccc2N1)NCCc1ccc(Cl)cc1	-1.3	nt	nt	-8.3	nt
O=C(COC(=O)C12CC3CC(CC(C3)C1)C2)NC12CC3CC(CC(C3)C1)C2	2.3	11.9%	-6.5	-0.9	-12.1
CN(C)/C=C(\C#N)C(=O)Nc1ccc(F)c(Cl)c1	0.1	-1.8%	nt	3.9	nt
COc1ccc(-c2n[nH]c(=S)n2-c2ccc3c(c2)OCCO3)cc1	-1.4	12.4%	-6.4	-3.1	-9.0
CCOc1ccc(S(=O)(=O)Nc2ccc(C(=O)N3CCCC3)cc2)cc1C(N)=O	-2.3	nt	nt	0.5	nt
CCc1ccc(OCC(=O)N2CCN(c3ccccc3F)CC2)cc1	-0.6	8.0%	10.2	-0.2	nt
CC(=O)Cn1c(CN2CCN(C(=O)c3ccco3)CC2)nc2c1c(=O)n(C)c(=O)n2C	1.5	nt	nt	-5.6	nt
COc1ccc(-n2ncc3c2CC(C)(C)CC3NC(=O)CCc2c(C)noc2C)cc1 (stereo unspecified)	-2.2	nt	nt	-11.3	nt
CN1CCN(S(=O)(=O)c2ccc3[nH]cc(C(=O)O)c(=O)c3c2)CC1	-2.9	-7.7%	9.8	?	-35.2
O=C(CSC1CCCCC1)Nc1ccccc1Br	6.0	7.3%	0.1	-0.5	10.8
O=C(Cn1cnc2ccccc2c1=O)c1ccc2c(c1)OCCO2	-0.1	-9.9%	5.4	-3.2	-29.3
Cc1ccc(Cl)cc1NC(=O)CSc1sc2c(O)cc(=O)[nH]c2c1C#N	-0.9	nt	nt	6.6	nt
